StopGo FLuc = FMDV 2A StopGo reporter, firefly signal | HEK cells with a luciferase reporter of 2A StopGo recoding | Potency, µM (doses to about 57.5 µM), inactives show at the highest dose signal change, negative = less light | hit rate 0.23% among 120,000 | AID 1745856; active = well fitted falling curve with a large enough effect; inconclusive = small, poorly fitted or top-dose-only effect; inactive = no such curve, though single readings can be large or run the other way; also: nearly all actives have a fitted effect of over 60% in size; overnight with compound
StopGo RLuc = FMDV 2A StopGo reporter, Renilla signal; HEK cells with a luciferase reporter of 2A StopGo recoding; Potency, µM (highest dose often 57.5 µM), without a hit: at the top dose signal change, negative = less light; hit rate 0.32% among 120,000; AID 1745857; active means well fitted falling curve with a large enough effect; inconclusive means small, poorly fitted or top-dose-only effect; inactive means no such curve, though single readings can be large or run the other way; also: nearly all actives have a fitted effect of over 55% in size; overnight with compound
Active calls of the source: *; & = joins results of further samples; [ ] = another dose, or the depositor's remark. % is scaled to controls: 0 for no effect and ±100 for the full control effect; potency is read from the fitted curve at half-maximal effect. Random draw from the library, and some 0.53% of all compounds hit somewhere here.

COCCCNC(=O)C1CCN(Cc2cc3ccccc3n2Cc2cccc(C)c2)CC1 was read as StopGo FLuc -20% and StopGo RLuc -15%.
COc1ccc(C2C(C(=O)Nc3ccccc3)=C(C)Nc3nc(SCC(=O)c4ccc(C)cc4)nn32)cc1 (stereo not given) was read as StopGo FLuc 0% and StopGo RLuc 2%.
For Cc1cccc(Nc2nc(-c3ccc(C)c(C)c3)cs2)c1 the results were StopGo FLuc 178%[activator] and StopGo RLuc 18%.
Screening Cc1cccc(C(=O)NC(c2ccc(Cl)cc2)C2CC2)c1 (stereo not given) returned StopGo FLuc 3% and StopGo RLuc 11%.
`COc1ccc(NC(=O)c2ccc3nc(CCc4ccccc4)oc3c2)c(OC)c1` gave StopGo FLuc 41%[activator] and StopGo RLuc -15%.
`CCC(=O)N(C)CCCNC(=O)c1nc2ccccc2c(=O)[nH]1` gave StopGo FLuc 116%[activator] and StopGo RLuc 3%.
COc1ccc(NC(=O)CC2C(=O)N(c3ccc(OC)cc3)C(=O)N2Cc2ccc(OC)c(OC)c2)cc1 (stereo not given) was read as StopGo FLuc -16% and StopGo RLuc 4%.
For COC(=O)c1ccc(COC(=O)Cc2coc3cc4c(cc23)CCC4)o1 the results were StopGo FLuc -3% and StopGo RLuc 4%.
`COc1ccc(-c2c(C(F)(F)F)oc3cc(OC(C)=O)ccc3c2=O)cc1` gave StopGo FLuc 35%[activator] and StopGo RLuc 0%.
Screening N#CC1(C(=O)NCc2cccc(NC(=O)C3CCCC3)c2)CCCC1 returned StopGo FLuc 6% and StopGo RLuc 3%.
CC1CCCCN1Cc1oc(CO)cc(=O)c1O (stereo not given) was read as StopGo FLuc 15% and StopGo RLuc 12%.
CCC(NC(=O)c1n[nH]c(=O)c2ccccc12)c1ccc(Br)cc1 (stereo not given) was read as StopGo FLuc -16% and StopGo RLuc -14%.
Screening Cc1cc2c(cc1C)C(c1cccc(OC(C)C)c1)CC(=O)N2 (stereo not given) returned StopGo FLuc -29% and StopGo RLuc -15%.
For CCCCOc1ccc(NC(=O)c2cccc(Cl)c2)c2cccnc12 the results were StopGo FLuc 8% and StopGo RLuc 18%.
Nc1nonc1C(=O)N1CCN(C(=O)Nc2ccc(F)c(Cl)c2)CC1 was read as StopGo FLuc -7% and StopGo RLuc -8%.
`CCc1ccc(-c2nc(CN3CCC(C(=O)NCCc4ccc(C)cc4)CC3)c(C)o2)cc1` gave StopGo FLuc -10% and StopGo RLuc -8%.
CCCC(=O)Nc1nnc(S(=O)(=O)N(C)Cc2ccc(Cl)cc2)s1 was read as StopGo FLuc -9% and StopGo RLuc -6%.
O=C(NCc1ccccc1)C1CCN(c2ncnc3c2nc2n3CCCCC2)CC1 was read as StopGo FLuc -12% and StopGo RLuc -5%.
For COCCn1cnc2c1c(=O)n(CC(=O)Nc1cccc(F)c1)c(=O)n2Cc1ccccc1 the results were StopGo FLuc 0% and StopGo RLuc 4%.
`CCOCCn1c(=O)c2c(nc(-n3nc(C)cc3C)n2Cc2ccc(C)cc2)n(C)c1=O` gave StopGo FLuc 4% and StopGo RLuc 13%.
COCCNC(=O)Cn1cc(S(=O)(=O)Cc2ccc(C)cc2)c2ccccc21 was read as StopGo FLuc 13% and StopGo RLuc 10%.
Screening CCc1ccc(-c2nc(SCC(=O)NCCOC)c(-c3ccc(C)cc3)[nH]2)cc1 returned StopGo FLuc 31%[activator] and StopGo RLuc 39%[activator].
`CCN(CC)C(=O)CN(C1CCCCC1)S(=O)(=O)c1ccc(Br)cc1` gave StopGo FLuc -8% and StopGo RLuc 171%[activator].
For Cc1ccc(-n2c3c(cc(C(=O)Nc4ccccc4C(N)=O)c2=O)C(=O)CC(C)(C)C3)cc1 the results were StopGo FLuc -23% and StopGo RLuc -8%.
CCN1CC(CN(C)C(=O)c2nn(-c3ccccc3)c(=O)c3ccccc23)Oc2ccccc21 (stereo not given) was read as StopGo FLuc -3% and StopGo RLuc 27%.
`N#Cc1nc(-c2ccccc2F)oc1NCCN1CCOCC1` gave StopGo FLuc 0% and StopGo RLuc 17%.
`Cc1ncc(COP(=O)(O)O)c(C=O)c1O` gave StopGo FLuc -3%[11.5 µM] and StopGo RLuc -7%.
`O=C(Nc1ccc(Cl)c(Cl)c1)C1CCCN(c2ncnc3nc[nH]c23)C1` (stereo not given) gave StopGo FLuc -5% and StopGo RLuc -10%.
`Cc1cc(NC(=O)COC(=O)c2cc3c(F)cccc3s2)no1` gave StopGo FLuc 10% and StopGo RLuc -7%.
CCOc1ccccc1NC(=O)N1CCC(N2CCN(Cc3ccccc3)C(=O)C2=O)CC1 was read as StopGo FLuc -8% and StopGo RLuc -8%.
`COc1cccc(-n2cnc3scc(-c4ccc(Cl)cc4)c3c2=O)c1` gave StopGo FLuc 20% and StopGo RLuc 19%.
Screening CC(NC(=O)C1c2ccccc2-c2ccccc21)C1CC2CCC1C2 (stereo not given) returned StopGo FLuc 12% and StopGo RLuc 34%[activator].
CS(=O)(=O)NCCc1ccc(C(=O)COc2ccc(Cl)c(Cl)c2)s1 was read as StopGo FLuc -5% and StopGo RLuc -15%.
For Cc1ccc(CCNC(=O)C2CCCC2)o1 the results were StopGo FLuc 20% and StopGo RLuc 5%.
For O=C(NCc1ccc(S(=O)(=O)N2CCOCC2)cc1)c1cc(Cl)ccc1O the results were StopGo FLuc -3% and StopGo RLuc -2%.
CSc1ccc(/C=C2N=C(/C=C/c3ccccc3)OC/2=O)cc1 was read as StopGo FLuc -2% and StopGo RLuc 4%.
`CCn1cnnc1-c1cccc(NC(=O)Cc2ccc(F)cc2)c1` gave StopGo FLuc 6% and StopGo RLuc 48%[activator].
For O=C(/C=C/c1ccc(F)cc1)N(C1CCCCC1)C1CCCCC1 the results were StopGo FLuc -14% and StopGo RLuc 2%.
For Cc1c(C)n(Cc2ccccc2)c2ccc(C(=O)NCc3ccc(OC(C)C)cc3)cc12 the results were StopGo FLuc 12% and StopGo RLuc 19%.
CC1(C)CC(NC(=O)C2CCN(S(=O)(=O)c3ccc(C(C)(C)C)cc3)CC2)CC(C)(C)N1 was read as StopGo FLuc -2% and StopGo RLuc -6%.
Screening CNC(=O)Cn1c(CO)cnc1SCc1ccccc1Cl returned StopGo FLuc -3% and StopGo RLuc -1%.
`COc1cc(OC)c2c(C)c(CC(=O)NC3CCCCCCC3)c(=O)oc2c1` gave StopGo FLuc 4% and StopGo RLuc 5%.
For CCc1ccc(N2CC(c3nc4ccccc4n3CCN3CCOCC3)CC2=O)cc1 (stereo not given) the results were StopGo FLuc -5% and StopGo RLuc 4%.
COc1ccc(-c2c(C)oc3cc(OCC(=O)Nc4ccccc4OC)ccc3c2=O)cc1 was read as StopGo FLuc -1% and StopGo RLuc -2%.
For Cc1sc2c(c1C)c1nc(-c3ccco3)nn1c(=O)n2CCc1ccccc1 the results were StopGo FLuc 0% and StopGo RLuc 66%[activator].
Screening Cc1cccc(-c2cc(C(=O)Nc3cc(C)n(C)n3)c3ccccc3n2)c1 returned StopGo FLuc 3% and StopGo RLuc -4%.
Cc1ccc(C)c(-c2[nH]c3c(c2-c2c(-n4cccc4)n(C)c(=O)[nH]c2=O)c(=O)[nH]c(=O)n3C)c1 was read as StopGo FLuc 12%&-9% and StopGo RLuc 4%&-3%.
Cc1cn2c(=O)c(S(=O)(=O)Nc3ccc(C)c(Cl)c3)c(C)nc2s1 was read as StopGo FLuc -19% and StopGo RLuc 72%[activator].
`C#CCN1CCN(CC(=O)Nc2cccc(F)c2)CC1` gave StopGo FLuc 18% and StopGo RLuc -4%[1.06 µM].
For CCCCc1ccc(N=Cc2ccccc2O)cc1 the results were StopGo FLuc 12% and StopGo RLuc 4%.
For CCOc1ccc(S(=O)(=O)c2cn(Cc3cc(C)ccc3C)c3ccc(OCC)cc3c2=O)cc1 the results were StopGo FLuc -9% and StopGo RLuc -4%.
For CC1=C(C(=O)Nc2ccc(C)cc2C)C(c2ccc(O)cc2)n2nc(SCC(=O)c3ccc(C)cc3)nc2N1 (stereo not given) the results were StopGo FLuc -7% and StopGo RLuc 0%.
O=C(O)COc1cccc2[nH]ccc12 was read as StopGo FLuc 14% and StopGo RLuc 4%.
Screening CCCn1c(SC(C)C(=O)c2ccc(Cl)cc2)n[nH]c1=O (stereo not given) returned StopGo FLuc 5% and StopGo RLuc 0%.
`CC(Oc1ccccc1)C(=O)OCc1nc2ccsc2c(=O)[nH]1` (stereo not given) gave StopGo FLuc 0% and StopGo RLuc 19%.
For CC1(C)CC/C(=C/c2ccc(Cl)cc2)C1(O)Cn1cncn1 (stereo not given) the results were StopGo FLuc inconclusive and StopGo RLuc inconclusive.
For COc1ccccc1NC(=O)C(=O)NCc1ccc(C)cc1 the results were StopGo FLuc 78%[activator] and StopGo RLuc -4%.
`O=C(c1ccc(F)c(F)c1)c1cc2ccccc2o1` gave StopGo FLuc 128%[activator] and StopGo RLuc 36%[activator].
`Cn1c(=O)oc2cc(S(=O)(=O)Nc3ccccc3O)ccc21` gave StopGo FLuc 25% and StopGo RLuc 51%[activator].
Screening CC(Oc1ccc(Cl)cc1)C(=O)OCc1nc(N)nc(N)n1 (stereo not given) returned StopGo FLuc 2% and StopGo RLuc -6%.
For O=C(CN1CCN(C(=O)c2ccc(I)cc2)CC1)N1CCCCC1 the results were StopGo FLuc 19% and StopGo RLuc 10%.
Screening Cc1cc(F)ccc1NC(=O)C1CCCN(C(=O)c2cnn(-c3ccccc3)c2-n2cccc2)C1 (stereo not given) returned StopGo FLuc inconclusive and StopGo RLuc -27%.
For CC/C=C(/C)C(=O)NCc1ccco1 the results were StopGo FLuc 4% and StopGo RLuc -3%.
`CC(C)(C)OC(=O)N1CCC(c2c(C(=O)N3CCCCC3)cnn2-c2ccccc2Cl)CC1` gave StopGo FLuc -15% and StopGo RLuc 34%[activator].
`CC1=C(C(N)=O)C(c2ccc(C)cc2)n2nc(SCc3ccccc3F)nc2N1` (stereo not given) gave StopGo FLuc -16% and StopGo RLuc -13%.
COCCn1c(C)cc(O)c(C(c2cccc(F)c2)N2CCN(c3ccccc3)CC2)c1=O (stereo not given) was read as StopGo FLuc -29% and StopGo RLuc 38%[activator].
For CCOc1ccc(OCC(=O)NCCS(=O)(=O)N2CCN(c3cccc(Cl)c3)CC2)cc1 the results were StopGo FLuc 4% and StopGo RLuc -8%.
O=C(CNc1ccc(F)c(C(F)(F)F)c1)N1CCNC1=O was read as StopGo FLuc 17% and StopGo RLuc -6%.
For COc1ccc(N2CCN(S(=O)(=O)CCNC(=O)c3cc(=O)c4ccccc4o3)CC2)cc1 the results were StopGo FLuc -16% and StopGo RLuc -6%.
For COc1ccc(CCNC(=O)c2cc3sccc3n2Cc2ccc(Cl)cc2)cc1OC the results were StopGo FLuc inconclusive and StopGo RLuc -33%.
Screening COc1ccc(F)cc1C(=O)/C=C/c1ccc(C(=O)O)cc1 returned StopGo FLuc inconclusive and StopGo RLuc inconclusive.
Screening COc1ccc(NC(=O)C(C)(C)C)cc1Cl returned StopGo FLuc 19% and StopGo RLuc 9%.
For COc1ccc2cc(/C=C(/CC(=O)O)c3nc4ccccc4s3)ccc2c1 the results were StopGo FLuc 0% and StopGo RLuc -2%[1.06 µM].
COC(=O)CNC(=O)Cc1ccc(NC(=O)C2=COCC2)cc1 was read as StopGo FLuc -3% and StopGo RLuc 2%.
For Cc1ccc(C(=O)C(C)Sc2nnc3ccccn23)cc1 (stereo not given) the results were StopGo FLuc 97%[activator] and StopGo RLuc 51%[activator].
For N#Cc1cccc(Oc2ccc(F)cc2)c1C#N the results were StopGo FLuc 0% and StopGo RLuc 31%.
`CCc1ccc2c(COC(=O)Cc3n[nH]c(=O)c4ccccc34)cc(=O)oc2c1` gave StopGo FLuc 6% and StopGo RLuc -7%.
`O=C(CSc1nc2ccccc2s1)Nc1ccc(F)c(F)c1` gave StopGo FLuc 0% and StopGo RLuc -10%.
`CCOc1ccc(Nc2sc(C(=O)c3ccc4c(c3)OCO4)c(N)c2S(=O)(=O)c2ccc(C)cc2)cc1` gave StopGo FLuc 0% and StopGo RLuc -8%.
For CN(C)C(=S)SCc1cc(C(C)(C)C)c(O)c(C(C)(C)C)c1 the results were StopGo FLuc -1% and StopGo RLuc 5%.
Screening O=C(Nc1ccc2oc(-c3ccncc3)nc2c1)c1cccc2ccccc12 returned StopGo FLuc 4% and StopGo RLuc 17%.

Part of the list above in order of formula weight, falling.
For COc1ccc(N2CCN(S(=O)(=O)CCNC(=O)c3cc(=O)c4ccccc4o3)CC2)cc1 the results were StopGo FLuc -16% and StopGo RLuc -6%.
For COc1ccc(CCNC(=O)c2cc3sccc3n2Cc2ccc(Cl)cc2)cc1OC the results were StopGo FLuc inconclusive and StopGo RLuc -33%.
`CCc1ccc2c(COC(=O)Cc3n[nH]c(=O)c4ccccc34)cc(=O)oc2c1` gave StopGo FLuc 6% and StopGo RLuc -7%.
For COc1ccc2cc(/C=C(/CC(=O)O)c3nc4ccccc4s3)ccc2c1 the results were StopGo FLuc 0% and StopGo RLuc -2%[1.06 µM].
Screening O=C(Nc1ccc2oc(-c3ccncc3)nc2c1)c1cccc2ccccc12 returned StopGo FLuc 4% and StopGo RLuc 17%.
For CN(C)C(=S)SCc1cc(C(C)(C)C)c(O)c(C(C)(C)C)c1 the results were StopGo FLuc -1% and StopGo RLuc 5%.
`O=C(CSc1nc2ccccc2s1)Nc1ccc(F)c(F)c1` gave StopGo FLuc 0% and StopGo RLuc -10%.
COC(=O)CNC(=O)Cc1ccc(NC(=O)C2=COCC2)cc1 was read as StopGo FLuc -3% and StopGo RLuc 2%.
Screening COc1ccc(NC(=O)C(C)(C)C)cc1Cl returned StopGo FLuc 19% and StopGo RLuc 9%.
For N#Cc1cccc(Oc2ccc(F)cc2)c1C#N the results were StopGo FLuc 0% and StopGo RLuc 31%.

Screens as filed in PubChem.
